T cruzi inh = blocks replication of Trypanosoma cruzi | T. cruzi beta-gal in NIH3T3, luminescence, 90 h | inhibition, % (no concentration beside the values) | hit rate 1.4% among 300,000;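 active = mean inhibition across valid replicates above about 55%, limit read from the data; inconclusive = mean below that limit but half or more replicates reach it; inactive = mean below it, under half of replicates reach it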;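 also: signal also drops with host cell toxicity which is not excluded here; 0% = plate median of DMSO wells and 100% = zero luminescence signal; higher percent means less beta-gal luminescence so fewer parasites; stock transfer was 50 nL into about 50 µL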
A1 inh = inhibitors of the anti-apoptotic protein A1, read as caspase activation | hit rate 0.066% among 330,000 | caspase activation, % (test concentration not listed) | AID 2462 | MEF A1-2A-BIM cells, Caspase-Glo 3/7 luminescence, 3 h; percent of clofoctol response, vehicle zero;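 active = over half of replicate activation scores above 10%, or exactly half above 10 with the replicate mean above 10; inconclusive = replicate mean below 10 yet half the replicates above 10; inactive = over half of replicates below 10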;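 also: wells of about 30 µL received 50 nL stock; many hits fall short of the cut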
AF4-AF9 inh = inhibitors of human MLL-AF4/AF9 interaction; AlphaScreen, biotin-AF4 peptide binding to FLAG-AF9; inhibition, % at 10 µM; hit rate 0.47% among 350,000; AID 651704;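 active = every replicate reaching a set inhibition limit, whatever the replicate mean, cut at about 25% in these data; inconclusive = mean inhibition reaches that limit but some replicates miss it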;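 also: 0% = plate neutral control median and 100% = total signal loss; the record names both 10 and 1 µM as test concentration; the first replicate is given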
Target sequence (P42568 whole entry, looked up): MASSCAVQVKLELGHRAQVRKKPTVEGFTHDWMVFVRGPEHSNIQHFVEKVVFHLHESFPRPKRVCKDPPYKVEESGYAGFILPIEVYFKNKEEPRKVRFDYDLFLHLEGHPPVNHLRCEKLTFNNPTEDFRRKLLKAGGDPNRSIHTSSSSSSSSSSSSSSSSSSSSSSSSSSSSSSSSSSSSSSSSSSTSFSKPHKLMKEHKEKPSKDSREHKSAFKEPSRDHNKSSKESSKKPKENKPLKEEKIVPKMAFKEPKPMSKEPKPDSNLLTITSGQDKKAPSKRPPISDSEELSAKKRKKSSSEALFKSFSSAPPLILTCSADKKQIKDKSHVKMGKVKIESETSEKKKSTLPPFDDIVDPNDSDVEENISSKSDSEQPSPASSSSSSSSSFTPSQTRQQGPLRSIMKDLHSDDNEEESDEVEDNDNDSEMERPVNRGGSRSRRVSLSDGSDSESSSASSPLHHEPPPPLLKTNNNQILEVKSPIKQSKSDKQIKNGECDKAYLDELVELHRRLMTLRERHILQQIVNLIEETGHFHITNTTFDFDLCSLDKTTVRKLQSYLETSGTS
RanGTP-Imp inh = inhibitors of RanGTP-importin-beta interaction, primary screen, biochemical, FRET, CFP-Ran, YFP-importin-beta, homogeneous; inhibition, % (concentration not given with the values); hit rate 1.1% among 300,000; AID 2216; cell-free CFP-Ran/YFP-importin-beta FRET ratio;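 active = most replicates above 15%; inconclusive = exactly half above 15%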;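 also: 0% = DMSO wells and 100% = Ran loaded with GDP instead of GTP; wells of about 40 µL received 100 nL stock; the first replicate is given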
Ecoli rRNA inh = inhibitors of bacterial rRNA selective over humanized ribosomes. E. coli WT GFP vs humanized-ribosome RFP mutants, fluorescence, 24 h; hits give low values; DMSO median 0, no signal -100. AID 720706. hit rate 1.6% among 350,000. GFP signal change (wild-type ribosome), % (no concentration beside the values);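 active = significant combined selectivity score with lowered wild-type GFP, culture density cut under 30%, mutant RFP and density less affected; inactive = any of these conditions unmet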; also: one replicate is shown; some compounds called inactive have numbers as strong as hits
Calb FLC = C. albicans growth modulation with fluconazole; C. albicans CaCi-2 (fluconazole-resistant clinical isolate) + fluconazole, Alamar Blue growth, 48 h; growth inhibition, % (no concentration beside the values); hit rate 0.57% among 300,000; AID 1979;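 active = most replicates above 75%; inconclusive = exactly half above 75%; inactive = most below 75%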;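 also: all wells also contain fluconazole at 8 µg/ml as a sub-toxic cotreatment; 0% = median of DMSO wells and 100% = median of geldanamycin control wells; wells of about 8 µL received 7.5 nL stock; the first replicate is given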
Beta cell apopt = beta cell apoptosis inhibition; INS-1E cytokine-induced death, ATP luminescence, 48 h; percent of positive-control rescue, neutral wells zero; protection from apoptosis, % (no concentration beside the values); hit rate 0.8% among 300,000;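 active = all replicates at 75% or more, or half of them and the mean; inconclusive = half reach 75% but not the mean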;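 also: 0% = cytokine-treated negative control wells and 100% = positive control rescue; higher means more ATP so stronger rescue from cytokine killing; wells of about 40 µL received 100 nL stock; the first replicate is given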
Vif A3G = inhibitors of Vif binding to APOBEC3G peptide, primary screen, biochemical, TR-FRET, GST-Vif 1-94, biotin-A3G peptide, dose response retest (AID 1117319); inhibition, %; hits with a dose series show IC50 in µM; hit rate 0.57% among 260,000; TR-FRET GST-Vif / biotin-A3G peptide binding; higher % means a stronger effect; test concentration not given here; strong numbers were not always called active;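 active = above the screen mean plus three standard deviations and confirmed in dose response; inconclusive = results disagree or hit not tested in dose response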;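 also: Vif residues 1-94 fused to GST binding biotinylated APOBEC3G peptide 110-148; 0% = full assay without inhibitor and 100% = GST in place of GST-Vif; retest series ran down from 100 µM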
Ecoli rRNA inh OD600 = also measured in Ecoli rRNA inh; calls as there; OD600 change, %; measured here: OD600 growth;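 optical density of the mix in the first replicate; 0 = DMSO median and -100 = no signal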
Ecoli rRNA inh RFP = second read-out of Ecoli rRNA inh, no call of its own (marks repeat the call); RFP signal change, %; measured here: RFP humanized mutant strains;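 first replicate; 0 = DMSO median and -100 = no signal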
* = called active by the depositor; ? = inconclusive; . = not tested or not shown; & = joins results of further samples.

smiles	T cruzi inh	A1 inh	AF4-AF9 inh	RanGTP-Imp inh	Ecoli rRNA inh	Ecoli rRNA inh OD600	Ecoli rRNA inh RFP	Calb FLC	Beta cell apopt	Vif A3G
COc1cc2c(cc1OC)C(Cc1ccc(O)cc1)NCC2 (centres undefined)	-0.3	0.4	6.4	-0.5	8.3	-4.4	-4.4	-0.1	2.5	16.4%
O=C(COn1nnc2ccc(Cl)cc21)NCc1ccccc1	-6.3	1.0	.	-4.2	.	.	.	-0.6	-3.3	6.0%
Cc1cc(C)c(C#N)c(N2CCN(Cc3ccccc3)CC2)n1	11.3	.	.	-2.4	.	.	.	-33.6	.	2.8%
CCNc1nc(NC(C)CC)nc(Oc2ccc(=O)[nH]n2)n1 (centres undefined)	-11.8	0.8	-58.6	?	8.8	6.5	-0.1	-22.0	6.3	0.4%
C[C@H]1CN([C@@H](C)CO)C(=O)c2cccc(NS(=O)(=O)c3ccc(Cl)cc3)c2O[C@@H]1CN(C)CC1CCCCC1	.	-0.7	-1.4&1.4	.	3.6&0.6	12.8&-2.5	-2.9&-4.1	.	0.2	.
N#Cc1cccc(NC(=O)COC(=O)c2ccc[n+]([O-])c2)c1	.	-0.5	-1.1	.	-0.9	11.4	-1.1	.	3.6	-1.3%
CNC(=O)COC(=O)c1ccccc1C(=O)c1ccc(Cl)c([N+](=O)[O-])c1	29.6	.	-6.5	1.3	19.2	16.4	-1.0	46.0	.	7.6%
CC(NC(=O)c1cccc(N2CCCC2=O)c1)c1ccc2c(c1)OCCO2 (centres undefined)	4.5	0.3	.	5.3	.	.	.	0.6	-2.4	17.7%
CSCCC(NS(=O)(=O)c1ccc(C)cc1)C(=O)NCC(C)(C)N1CCOCC1 (centres undefined)	.	-0.6	2.0	.	10.6	18.1	-3.0	.	-0.6	26.5%
Cc1cccc(C(=O)N2CCCC(CCC(=O)N3CCN(c4ccccn4)CC3)C2)c1 (centres undefined)	-3.4	0.3	2.8	-0.1	-4.0	-7.9	2.1	3.2	2.7	.
CCOC(=O)C1(C)/C(=N/Nc2cccc(Cl)c2)C(=O)C(=O)N1c1ccccc1 (centres undefined)	11.6	-0.3	.	-4.3	.	.	.	4.3	-7.7	3.8%
COc1ccc(CCNC(=O)C(=O)NCC2CCCN2S(=O)(=O)c2ccc(OC)cc2)cc1 (centres undefined)	-3.9	1.0	-0.4	-0.2	-16.9	-20.4	0.2	-1.0	-7.5	-1.9%
Cc1cc(OCC(=O)Nc2ccc(OCc3ccccc3)cc2)nc(C(C)C)n1	-3.2	-0.1	.	-10.0	.	.	.	0.0	4.9	-1.3%
COc1cccc(NC(=O)Cn2c3ccccc3c3nc4n(c(=O)c32)CCCS4)c1	4.2	0.0	0.3	-2.4	2.9	11.6	1.6	1.7	-0.1	.
Cc1ccc(-c2nn(-c3ccccc3)cc2/C=C/C(=O)O)o1	-3.3	-0.2	-2.0	0.5	-0.9	2.3	6.0	12.3	-4.3	2.1%
O=P(c1ccccc1)(c1ccccc1)c1nc(-c2ccccc2)oc1N1CCOCC1	9.1	0.5	5.0	-2.9	-20.5	-25.1	0.5	-4.9	-0.2	-6.5%
CNC(=O)N(O)C1N(C)C(=O)N(Cc2ccccc2)C1(C)C (centres undefined)	-4.7	-0.4	.	-3.6	.	.	.	-14.9	-5.3	5.0%
CC1(C(=O)Nc2cccc(-n3cnnn3)c2)Cc2ccccc2C(=O)O1 (centres undefined)	.	0.3	1.4	.	-0.2	-2.3	-2.4	.	-4.6	-11.4%
CCC(C)(C)n1nnnc1CN1CCN(C(c2ccccc2)c2ccccc2)CC1	16.5	-0.8	.	-0.1	.	.	.	6.9	1.5	-6.2%
C=CCNC(=S)NCc1ccc(CNC(=S)NCC=C)cc1	-0.6	0.2	-2.4	?	5.7	3.1	1.9	-7.2	-2.8	-1.1%
O=C(CCNC(=O)N1CC(=O)Nc2ccccc21)Nc1ccc(Cl)cc1	-3.7	-0.9	-2.1	1.1	0.7	1.7	0.6	-5.1	-2.6	.
CCN(C(=O)COC(=O)CCOc1ccccc1)c1c(N)n(Cc2ccccc2)c(=O)[nH]c1=O	.	-0.4	1.8	.	11.3	14.4	0.3	.	-4.6	10.4%
Cc1ccc2occ(/C=N/NC(=O)c3ccccc3C)c(=O)c2c1	-10.0	0.5	-4.9	-0.6	3.6	4.0	-4.3	-10.2	-13.7	.
O=C(O)c1ccc2c3c(cccc13)C(=O)N(c1ccccc1)C2=O	-7.5	-0.3	1.4	?	-1.1	-9.3	2.3	-2.2	-3.2	4.2%
CCOc1ccc(CCNC(=O)C2CCN(c3nn4c(=O)cc(C)nc4s3)CC2)cc1OCC	-0.1	0.3	.	1.9	.	.	.	-4.7	-4.6	3.7%
CCOC(=O)[C@H]1[C@H]2COc3ccc(Br)cc3[C@@H]2N2C(=O)CN(Cc3ccc(C)cc3)C(=O)[C@@]12C	.	0.7	-6.9	.	-4.5	-21.7	-3.3	.	6.3	.
CC(C)CNC(=O)COc1ccc(Sc2ccc(OCC(=O)NCC(C)C)cc2)cc1	-25.2	0.2	.	-0.9	.	.	.	-11.3	7.9	.
CC1(c2ccccc2)CC(C)(C)N2C(=O)Cc3cccc1c32 (centres undefined)	-2.8	0.1	1.6	-1.0	-29.8	-32.2	-5.1	10.3	-7.7	-12.8%
OC(c1nc2ccccc2[nH]1)C(O)c1nc2ccccc2[nH]1 (centres undefined)	-5.5	0.3	-3.3	-2.9	-0.1	16.7	21.4	2.0	1.1	.
CC1Oc2ccccc2N(CC(=O)NCCCN2CCOCC2)C1=O (centres undefined)	12.1	0.9	1.1	2.7	0.6	4.9	-3.0	-18.9	-1.5	.

In a second layout: 2 of the compounds above.
CCC(C)(C)n1nnnc1CN1CCN(C(c2ccccc2)c2ccccc2)CC1
- T cruzi inh: 16.5
- A1 inh: -0.8
- AF4-AF9 inh: .
- RanGTP-Imp inh: -0.1
- Ecoli rRNA inh: .
- Ecoli rRNA inh OD600: .
- Ecoli rRNA inh RFP: .
- Calb FLC: 6.9
- Beta cell apopt: 1.5
- Vif A3G: -6.2%
C=CCNC(=S)NCc1ccc(CNC(=S)NCC=C)cc1
- T cruzi inh: -0.6
- A1 inh: 0.2
- AF4-AF9 inh: -2.4
- RanGTP-Imp inh: ?
- Ecoli rRNA inh: 5.7
- Ecoli rRNA inh OD600: 3.1
- Ecoli rRNA inh RFP: 1.9
- Calb FLC: -7.2
- Beta cell apopt: -2.8
- Vif A3G: -1.1%

More records follow:
smiles	T cruzi inh	A1 inh	AF4-AF9 inh	RanGTP-Imp inh	Ecoli rRNA inh	Ecoli rRNA inh OD600	Ecoli rRNA inh RFP	Calb FLC	Beta cell apopt	Vif A3G
CC12CCC(C(=O)O)(C/C1=N\O)C2(C)C (centres undefined)	-10.6&7.8	0.7&0.7	.	?	.	.	.	3.0&-4.0	-2.6&-4.3	13.1%&-5.4%
CC(C)c1nc(C(=O)N2CCCC(CCC(=O)N(C)CCc3ccccn3)C2)cs1 (centres undefined)	-4.1	0.0	0.8	-3.1	17.2	10.7	-0.1	3.0	0.9	.
CC(c1ccccc1)N1CC(C(=O)N2CCCC(C(N)=O)C2)CC1=O (centres undefined)	.	-0.5	-2.1	.	.	.	.	.	2.4	-2.2%
CC(C)Cn1cnc2c1c(=O)n(CC(=O)NN)c(=O)n2Cc1ccccc1	5.6	-0.1	1.5	0.5	5.9	6.9	-1.8	-3.8	-4.5	.
CC(C)OP(=O)(c1ccc(N(C)C)cc1)C(O)c1ccncc1 (centres undefined)	-12.9	0.7	.	-0.5	.	.	.	4.8	0.1	-1.9%
Cc1cc(=O)[nH]c(SCC(=O)N2c3ccccc3CC2C)n1 (centres undefined)	5.5	-0.3	.	-5.9	.	.	.	19.3	-8.1	?
O=C1CCC(C(=O)NCCCn2ccnc2)N1 (centres undefined)	-1.2	0.0	.	-3.4	.	.	.	-11.0	-7.9	?
COc1ccc(CCNC(=O)CCn2c(SCC(=O)N3CCCC3)nc3ccccc3c2=O)cc1OC	-5.0	0.0	1.8	-3.6	9.9	13.8	1.4	-1.3	-6.1	2.0%
CN1CCN(CC(=O)Nc2ccccc2[N+](=O)[O-])CC1	11.3	0.0	.	1.1	.	.	.	0.8	.	.
Cn1c(=O)c(C(=O)c2ccccc2)nc2ccccc21	-13.4	0.2	.	-2.9	.	.	.	-9.9	-2.5	?
C=CCOc1cccc(C2C(C(=O)c3ccc(C)o3)=C(O)C(=O)N2c2nnc(C)s2)c1 (centres undefined)	5.3	-0.9	-0.3	-5.0	1.4	1.6	11.9	8.6	.	.
CC(C)(CNC(=O)c1ccc(Br)o1)CNC(=O)c1ccc(Br)o1	21.0	.	1.1	1.2	5.9	-15.1	3.9	3.1	.	-4.8%
Cc1ccc(C(=O)COC(=O)c2cc(Cl)ccc2O)cc1[N+](=O)[O-]	-7.6	0.3	-3.0	1.5	8.4	15.6	-1.7	3.0	.	.
COc1cc(SC)ccc1C(=O)NCCOc1ccccc1Cl	8.1	-0.1	.	0.1	.	.	.	?	-5.5	-2.0%
CCc1c(C)nc(SCC(=O)Nc2cccc(Br)c2)[nH]c1=O	11.3	2.1	.	7.2	.	.	.	20.1	2.3	30.1%
O=[N+]([O-])c1ccccc1NCc1ccccc1Cl	1.7	0.6	-5.3	?	-29.2*	-20.4*	-10.2*	3.6	-0.3	19.6%
COc1ccc(CCN=C(N)C(C)c2ccccc2)cc1OC (centres undefined)	1.5	0.2	-1.8	3.9	20.3	19.2	1.2	?	-1.1	4.4%
CCOc1ccccc1NC(=O)C(=O)CC(=O)c1ccc(OC)cc1	1.6	0.1	-5.1	?	0.1	0.7	2.7	-4.4	8.0	.

Bioassay records from PubChem.

Not all compounds are listed, so the mix of outcomes need not match the whole.
